gsp antagonist = antagonists of gsp mutant (McCune-Albright syndrome); gsp-mutant cells, cAMP HTRF, 30 min; control for the full effect not named in the record; Potency, µM (doses to about 76.9 µM), without a hit: at the top dose activity change, negative = inhibition, actives largely listed as inhibitors; 0.4% of 340,000 active; active = falling curve of any shape with a large fitted effect; inconclusive = falling curve, mostly with a smaller effect; inactive = flat or rising curve; cell line not stated here;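 note: intracellular cAMP measured with PDE inhibitor Ro 20-1724 present during compound exposure; potency is the fitted concentration of half-maximal effect; % is set by controls: 0 for no effect and ±100 for the full control effect; nearly all actives have a fitted effect of over 65% in size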
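HTRF cAMP measurement after 30 min RT detection following 30 min, 37C compound treatment alongside […] (added as 300 uM solution) in G418-selected cells seeded at 2000/well and grown 16–24 h.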
D2 ag = agonists of human D2 dopamine receptor (beta-arrestin). activation, % (test concentration not listed). P14416. DiscoveRx PathHunter D2 beta-arrestin, luminescence, 90 min; 100% = 57 uM dopamine signal. 0.084% of 360,000 active; in the data active = activation above about 40%; inconclusive = about 15% to 40%; inactive = below about 15%; note: compound concentration not given in the record; the text of the record calls up to 30% inactive
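Agonist mode: compounds alone added to overnight-plated D2 PathHunter cells for 90 min at 37 C, with 57 uM final dopamine (EC100) defining full response. Beta-arrestin recruitment detected by chemiluminescent reagent, read after 1 h at ambient temperature.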
CtBP-E1A inh = CtBP/E1A binding inhibition. AlphaScreen GST-E1A/His-CtBP binding, 1536-well; stronger effect = lower value; control for the full effect not named in the record. activity change, % (no concentration beside the values). 0.49% of 340,000 active; in the data active means activity change below about -65%; inconclusive means about -30% to -65%; inactive means above about -30%; note: % is set by controls: 0 for no effect and ±100 for the full control effect; compound concentration not given in the record
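Homogeneous bead-based format: GST-tagged E1A captured on glutathione donor beads, His-tagged CtBP on nickel acceptor beads; compounds precede bead addition by 2 h at 37 °C.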
Six1-Eya2 inh = blocks human Six1 binding to Eya2; 0.56% of 360,000 active; activity change, % (test concentration not listed); AlphaScreen GST-Six1/His-Eya2 binding, biochemical; stronger effect = lower value; control for the full effect not named in the record; Q15475+O00167; AID 651725; in the data active = activity change below about -65%; inconclusive = about -30% to -65%; inactive = above about -30%; note: % is set by controls: 0 for no effect and ±100 for the full control effect; compound concentration not given in the record
Target sequence (O00167 whole entry, looked up): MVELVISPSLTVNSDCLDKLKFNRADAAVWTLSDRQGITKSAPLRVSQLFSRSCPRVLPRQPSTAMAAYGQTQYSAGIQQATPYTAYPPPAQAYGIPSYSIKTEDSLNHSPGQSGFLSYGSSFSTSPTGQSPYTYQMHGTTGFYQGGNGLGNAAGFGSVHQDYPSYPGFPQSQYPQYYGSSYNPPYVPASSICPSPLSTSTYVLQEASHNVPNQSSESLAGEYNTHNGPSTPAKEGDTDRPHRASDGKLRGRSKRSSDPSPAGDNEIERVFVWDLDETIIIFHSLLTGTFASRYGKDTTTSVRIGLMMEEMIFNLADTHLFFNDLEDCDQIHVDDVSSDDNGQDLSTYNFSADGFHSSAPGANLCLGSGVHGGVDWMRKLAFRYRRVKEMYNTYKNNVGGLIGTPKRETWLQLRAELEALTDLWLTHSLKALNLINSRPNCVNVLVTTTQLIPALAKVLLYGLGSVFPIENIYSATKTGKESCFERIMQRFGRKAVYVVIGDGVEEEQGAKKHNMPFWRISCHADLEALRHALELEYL
Target sequence (Q15475 whole entry, looked up): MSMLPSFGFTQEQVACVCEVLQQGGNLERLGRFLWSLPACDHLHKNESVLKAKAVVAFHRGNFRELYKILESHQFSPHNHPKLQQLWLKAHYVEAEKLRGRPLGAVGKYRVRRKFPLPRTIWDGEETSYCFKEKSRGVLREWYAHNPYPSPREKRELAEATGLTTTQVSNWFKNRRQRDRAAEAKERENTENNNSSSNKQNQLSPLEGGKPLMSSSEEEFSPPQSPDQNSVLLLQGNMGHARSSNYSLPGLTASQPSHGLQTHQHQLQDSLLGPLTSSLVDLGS
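AlphaScreen luminescence read after one hour at 37 °C in darkness. Pin-transferred compounds met GST-Six1 and His-Eya2 protein (5X stock 250 nM/500 nM) plus glutathione donor and Ni-chelate acceptor beads (5X, 50 ug/mL).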
D2 PAM = human D2 receptor positive allosteric modulation; P14416; DiscoveRx D2 beta-arrestin cells, luminescence, 90 min; 100% = 57 uM dopamine signal; potentiation, % (no concentration beside the values); 0.23% of 360,000 active; AID 624464; active = potentiation of 50% or more; inconclusive = 30% to 50%; inactive = 30% or less;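 note: compound concentration not given in the record; tested on top of an EC20 dose of dopamine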
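D2 cells co-treated with compound plus 50 nM dopamine (EC20) for 90 min at 37 deg C to detect potentiation. Beta-arrestin recruitment was read as enzyme-fragment luminescence after 1 h at ambient temperature. Full response was set by 57 uM dopamine.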
gsp ag = agonists of gsp mutant (McCune-Albright syndrome). gsp mutant cells, cAMP HTRF, 30 min; control for the full effect not named in the record. Potency, µM (doses to about 76.9 µM), without a hit: at the top dose activation (cAMP increase), hits mostly activators. 0.13% of 340,000 active. AID 624287; active = well fitted activation curve with a large enough effect; inconclusive = small, poorly fitted or top-dose-only effect, or another doubt; inactive = no such curve, though single readings can be large or run the other way; cell line not stated here;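 note: phosphodiesterase inhibitor Ro 20-1724 added with compounds to block cAMP breakdown; potency is the fitted concentration of half-maximal effect; nearly all actives have a fitted effect of over 60% in size; about a fifth of the inactives were tested at one dose only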
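Cells in DMEM/10% FBS with G418 were pretreated with compounds in DMSO plus […] (300 uM stock) for 30 min at 37C. cAMP was measured by HTRF (cAMP-d2 plus anti-cAMP antibody-K) after 30 min at room temperature.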
* = called active by the depositor; ? = inconclusive; / = no result given; [ ] = dose if it differs, or a comment.

1. Cc1cc(-c2nc3ncccc3o2)ccc1NC(=S)NC(=O)C(C)C
2. C/C(=N\Nc1nccnc1Cl)c1ccc(O)cc1
3. CN(C)c1ccc(N2CN=C3SCC(=O)N3C2)cc1
4. CCOc1ccc(NC(=O)C2CC(=O)NC(N3CCc4ccccc43)=N2)cc1 (stereo not drawn)
5. NC(=O)C1(N2CCCCC2)CCN(C(=S)Nc2ccc(Cl)cc2)CC1
6. FC(F)(F)c1ccccc1/C=N/N1CCN(Cc2ccccc2)CC1
screen / no.,1,2,3,4,5,6
gsp antagonist,-2%,2%,?,6%,11%,2%
D2 ag,-4.1,-3.1,7.3,-0.6,1.1,-0.1
CtBP-E1A inh,16,-11,?,-1,0,-5
Six1-Eya2 inh,0,-16,?,-5,2,?
D2 PAM,6,-7,19,-4,-14,-21
gsp ag,-28%[15.4 µM],-21%,-51%[inhibitor],?,?,2%

7. COC(=O)Nc1nc(-c2cc(Cl)ccc2Cl)cs1
8. CCOC(=O)C(Sc1ncc(C#N)c(N)n1)C(C)C (stereo not drawn)
9. CCCC(=O)N1CCCC1(C)C(=O)N(C)Cc1cccc2ccccc12 (stereo not drawn)
10. CCc1ccc(NC(=O)c2cc(-c3ccc(OC)cc3)on2)cc1
11. COc1ccc(CCNC(=O)C(C(=O)c2ccc(F)cc2)n2ccccc2=O)cc1OC (stereo not drawn)
12. COc1cccc(/C=N/n2c(C3CCCCC3)n[nH]c2=S)c1OC
screen / no.,7,8,9,10,11,12
gsp antagonist,7%,-4%,/,13%,6%,-12%
D2 ag,2.9,-4.0,0.2,-1.0,-5.7,5.7
CtBP-E1A inh,-2,-24,-5,6,3,-6
Six1-Eya2 inh,2,?,7,4,2,-5
D2 PAM,-28,-3,-1,-3,-4,-13
gsp ag,-3%[15.4 µM],-14%,/,-44%,-6%,-19%

13. Brc1ccc(-c2noc(COc3ccc4ccccc4c3)n2)o1
14. CCC(C(=O)O/N=C(\N)c1ccccc1)c1ccccc1 (stereo not drawn)
15. N=C1C(c2nc(-c3ccc(F)cc3)cs2)=C(O)CN1CCCN1CCOCC1
16. COCC(Cc1ccccc1)NC(=O)Cn1cc(C)c(=O)[nH]c1=O (stereo not drawn)
17. CC(C)NC(=O)c1cc(-c2ccco2)on1
18. O=C(CCN1C(=O)C2CC=CCC2C1=O)Nc1cc(C(F)(F)F)ccc1N1CCCC1 (stereo not drawn)
screen / no.,13,14,15,16,17,18
gsp antagonist,-5%,?,-3%,-2%,-3%,-13%
D2 ag,2.7,0.1,-2.2,0.0,-2.9,3.8
CtBP-E1A inh,11,59,-16,4,3,5
Six1-Eya2 inh,-5,49,-14,0,0,3
D2 PAM,-3,-2,-9,/,-5,-19
gsp ag,1%,17%,-4%,/,2%,-26%

19. O=[N+]([O-])c1ccc(O)c(-c2nn[nH]n2)c1
20. COCCc1ccc(OC2(C)CCN(Cc3cccn3-c3nccs3)C2)cc1 (stereo not drawn)
21. Cc1ccc(N(CCC#N)C(=O)COC(=O)C2CCN(S(=O)(=O)c3ccc4c(c3)OCCO4)CC2)cc1
22. O=C(c1ccc([N+](=O)[O-])cc1)N1CCN=C1SCc1ccccc1
23. COc1ccc(-c2csc(NCCn3c(C)nc4cc(C(F)(F)F)ccc43)n2)cc1
24. Cc1nc(Br)c(Br)n1Cc1ccccc1
screen / no.,19,20,21,22,23,24
gsp antagonist,6%,/,0%,?,-20%,/
D2 ag,-3.4,-7.9,-7.2,15,-3.1,-3.7
CtBP-E1A inh,-94*,?,-1,-4,-5,-24
Six1-Eya2 inh,-92*,-12,-6,-16,-4,-13
D2 PAM,-2,-23,-7,15,-7,-11
gsp ag,?,/,-5%[15.4 µM],12%[15.4 µM],-17%,16%

25. CCCOc1ccc(F)cc1-c1cc(C(=O)NCc2cccc(C(F)(F)F)c2)[nH]n1
26. Cc1ccc(NC(=O)CN(c2ccc3c(c2)OCO3)S(=O)(=O)c2c(C)n[nH]c2C)cc1
27. COc1cccc(CC(=O)Nc2ccc3nc(C)sc3c2)c1
28. CCc1ccc(NC(=O)CSc2nc3ccccc3nc2N2CCCCC2)cc1
29. COc1ccc(COC(=O)Nc2cn(C)nc2C(F)(F)F)cc1
30. Cc1cc(C)cc(NC(=O)CNC(c2ccccc2)c2ccccc2)c1
screen / no.,25,26,27,28,29,30
gsp antagonist,/,?,3%,-4%,11%,-14%
D2 ag,-2.3,-2.3,-3.3,2.8,-5.2,-4.6
CtBP-E1A inh,6,-3,14,14,7,1
Six1-Eya2 inh,-3,-1,15,21,-1,0
D2 PAM,-11,-3,1,-3,-8,-12
gsp ag,/,18%,-7%[15.4 µM],50%,20%,-1%[15.4 µM]

31. NCCCC[C@@H](C(=O)NCCCCCCCCCCC(=O)N1CCNCC1)n1cc(CCCC(=O)O)nn1
32. COCn1c(COc2ccc3ccccc3c2)nc2ccccc21
33. COc1ccccc1NC(C)C(=O)N/N=C/c1ccccc1OCc1cccc(Br)c1 (stereo not drawn)
34. COc1ccc(CCNC(=O)CN2C(=O)NC(C)(c3ccc([N+](=O)[O-])cc3)C2=O)cc1 (stereo not drawn)
35. CCOC(=O)c1c(NC(=O)CN2CCCCC2)sc2c1CCCC2O (stereo not drawn)
36. O=C(Nc1ccc2c(c1)Cc1cc([N+](=O)[O-])ccc1-2)C(F)(F)F
screen / no.,31,32,33,34,35,36
gsp antagonist,11%,-27%,-15%,/,-30%,-7%
D2 ag,2.1,-3.1,2.4,5.2,-1.7,-1.6
CtBP-E1A inh,/,1,-15,8,-5,-2
Six1-Eya2 inh,-4,-3,?,1,-11,-2
D2 PAM,-4,-3,-11,-2,-2,-15
gsp ag,11%,-13%,-1%[15.4 µM],0%[15.4 µM],-14%,-5%[15.4 µM]

37. Cn1c(=O)c2c(nc(Oc3ccccc3Br)n2C)n(C)c1=O
38. O=C(CN(C(=O)c1ccc(Cl)cc1Cl)N1C(=O)C2C3C=CC(C3)C2C1=O)c1ccc(F)cc1 (stereo not drawn)
39. COc1ccccc1C(=O)NCCC(=O)N1CCCC(C)C1 (stereo not drawn)
40. O=C(c1ccc(CS(=O)(=O)c2ccccc2)o1)N1CCN(c2ccccc2)CC1
41. Cc1ccc(C23CC4CC(CC(C(=O)OCC(=O)N(C)C)(C4)C2)C3)cc1
42. COc1ccc(OC)c(C(=O)c2coc3cc(Br)c(O)c(Br)c23)c1
screen / no.,37,38,39,40,41,42
gsp antagonist,-5%,-22%,5%,1%,-9%,0%
D2 ag,0.5,-4.4,0.6,1.6,-3.8,-3.0
CtBP-E1A inh,2,3,5,4,4,-4
Six1-Eya2 inh,8,0,4,-9,3,-6
D2 PAM,5,1,1,-3,-1,-4
gsp ag,-12%[15.4 µM],6%,7%,11%,4%,-3%[15.4 µM]

43. Cc1ccc(CNC(=O)CCCNC(=O)c2ccc(Cl)cc2)n1C
44. Cc1c(CCOC(=O)CC23CC4CC(CC(C4)C2)C3)sc[n+]1CC(=O)c1ccc(Br)cc1
45. O=C(CNC(=O)c1ccc(OC(F)F)cc1)NCC1CCCO1 (stereo not drawn)
46. CCSc1cnn(-c2ccccc2)c(=O)c1Cl
47. COc1ccccc1CNc1ncnc2cc(OC)c(OC)cc12
48. Cn1c(=O)c2c(nc(NCc3cccnc3)n2Cc2cccc(C(F)(F)F)c2)n(C)c1=O
screen / no.,43,44,45,46,47,48
gsp antagonist,-2%,?,11%,-18%,6%,5%
D2 ag,-3.7,-1.5,4.6,-3.1,-1.1,1.7
CtBP-E1A inh,3,-4,15,5,/,-7
Six1-Eya2 inh,-7,-5,2,-11,7,-14
D2 PAM,5,-7,-2,-1,-14,-7
gsp ag,14%,14%,4%,19%[15.4 µM],3%,?

49. Cc1oc(-c2ccc(Cl)cc2)nc1CN1CCCC(C(=O)NCc2ccccn2)C1 (stereo not drawn)
50. CC(C)c1ccc2[nH]c(O)c(N=NC(=O)c3cccc(S(=O)(=O)Nc4cccc(Cl)c4)c3)c2c1
51. Cc1ccc2c(c1)N(S(=O)(=O)c1ccc(CN3C(=O)c4cccnc4C3=O)s1)CCO2
52. CC1CC(C)(C)CC2(C1)NC(=O)N(CC(=O)NCc1ccccc1F)C2=O (stereo not drawn)
53. N#CC(=Nc1ccccc1)c1ccccc1
54. COc1ccc(CN2C(=O)C(CC(=O)NC3CCCCC3)CC(C(=O)N3CCOCC3)=C2C)cc1 (stereo not drawn)
screen / no.,49,50,51,52,53,54
gsp antagonist,0%,11%,-24%,10%,6%,/
D2 ag,-2.3,1.0,1.0,-0.4,-0.8,-0.9
CtBP-E1A inh,1,3,-9,1,7,0
Six1-Eya2 inh,2,-1,-9,3,-4,13
D2 PAM,-29,-5,?,-5,-4,0
gsp ag,6%,-12%[15.4 µM],?,7%[15.4 µM],-16%,-39%[inhibitor]

In the list so far, eight contain a Cl atom:
2. C/C(=N\Nc1nccnc1Cl)c1ccc(O)cc1
5. NC(=O)C1(N2CCCCC2)CCN(C(=S)Nc2ccc(Cl)cc2)CC1
7. COC(=O)Nc1nc(-c2cc(Cl)ccc2Cl)cs1
38. O=C(CN(C(=O)c1ccc(Cl)cc1Cl)N1C(=O)C2C3C=CC(C3)C2C1=O)c1ccc(F)cc1 (stereo not drawn)
43. Cc1ccc(CNC(=O)CCCNC(=O)c2ccc(Cl)cc2)n1C
46. CCSc1cnn(-c2ccccc2)c(=O)c1Cl
49. Cc1oc(-c2ccc(Cl)cc2)nc1CN1CCCC(C(=O)NCc2ccccn2)C1 (stereo not drawn)
50. CC(C)c1ccc2[nH]c(O)c(N=NC(=O)c3cccc(S(=O)(=O)Nc4cccc(Cl)c4)c3)c2c1
screen / no.,2,5,7,38,43,46,49,50
gsp antagonist,2%,11%,7%,-22%,-2%,-18%,0%,11%
D2 ag,-3.1,1.1,2.9,-4.4,-3.7,-3.1,-2.3,1.0
CtBP-E1A inh,-11,0,-2,3,3,5,1,3
Six1-Eya2 inh,-16,2,2,0,-7,-11,2,-1
D2 PAM,-7,-14,-28,1,5,-1,-29,-5
gsp ag,-21%,?,-3%[15.4 µM],6%,14%,19%[15.4 µM],6%,-12%[15.4 µM]
